YopH inh = YopH (Yersinia) phosphatase inhibition; hit rate 0.16% among 140,000; fluorescence Ex485/Em525; AID 898; inhibition, %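 (about 10 µM by stock and volumes)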;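 active = inhibition of 50% or more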;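 note: controls were vehicle for no effect and minimum signal wells for full effect; inactives centre near -20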
Mtb growth = M. tuberculosis H37Rv growth inhibitors, H37Rv strain (AID 1626). M. tuberculosis H37Rv growth inhibition; higher % means a stronger effect. one-dose inhibition, % at 10 µM; IC50 in µM for titrated hits. hit rate 0.95% among 220,000;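 active = confirmed in a dose series; inconclusive = inhibition above 80% but not taken into the dose series; inactive = below 80% or under 30% at every dose of the series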;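 note: bacteria incubated seven days before Alamar blue readout; 0% = bacteria only wells and 100% = bacteria with antibiotic wells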
RecA intein inh = Mtb RecA intein splicing inhibition | P9WHJ3 | cell-free RecA intein splicing, fluorescence | inhibition, %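 (about 9 µM by stock and volumes)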 | hit rate 0.75% among 290,000; in the data active = inhibition above about 30%; inconclusive = no clear call, values can overlap the other calls;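 note: 0% = vehicle wells and 100% = reference inhibitor control wells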
Target sequence (P9WHJ3 whole entry, looked up): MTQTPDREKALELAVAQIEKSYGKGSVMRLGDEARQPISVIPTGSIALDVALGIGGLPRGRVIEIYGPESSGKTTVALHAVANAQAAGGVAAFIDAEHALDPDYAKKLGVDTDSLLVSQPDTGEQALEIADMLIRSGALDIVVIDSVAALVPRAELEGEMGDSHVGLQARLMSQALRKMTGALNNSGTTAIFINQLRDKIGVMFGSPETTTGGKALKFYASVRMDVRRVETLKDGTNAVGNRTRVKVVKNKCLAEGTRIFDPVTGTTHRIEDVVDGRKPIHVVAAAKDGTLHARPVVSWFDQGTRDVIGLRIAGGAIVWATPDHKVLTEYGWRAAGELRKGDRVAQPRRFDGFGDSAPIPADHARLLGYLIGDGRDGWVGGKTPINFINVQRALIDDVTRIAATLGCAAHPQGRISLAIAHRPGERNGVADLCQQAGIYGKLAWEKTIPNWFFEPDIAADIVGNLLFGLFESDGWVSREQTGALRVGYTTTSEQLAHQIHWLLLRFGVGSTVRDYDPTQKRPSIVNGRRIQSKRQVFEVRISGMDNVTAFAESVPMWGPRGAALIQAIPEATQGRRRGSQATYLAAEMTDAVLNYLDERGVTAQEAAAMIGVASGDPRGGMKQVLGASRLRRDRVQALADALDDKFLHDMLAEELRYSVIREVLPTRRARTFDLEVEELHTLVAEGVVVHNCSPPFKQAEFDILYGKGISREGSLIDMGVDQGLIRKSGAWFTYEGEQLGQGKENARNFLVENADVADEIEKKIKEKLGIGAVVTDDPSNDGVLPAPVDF
Mtb bLac sens = beta-lactam sensitization of Mtb H37Rv; M. tuberculosis H37Rv growth with meropenem, percent inhibition; hits of this screen are not shown here; inhibition, % at 25 µM; hit rate 0.27% among 330,000; AID 434955;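 active = about 74% or more and at least 40 points above the plate without the antibiotic, then above 30% in a dose series; inconclusive = first-round hits that could not be retested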;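 note: growth measured after seven days incubation then overnight dye step; 0% = bacteria only wells and 100% = bacteria with antibiotic; twin plates without the antibiotic show which effects depend on it; some results filed as inactive read as strong as hits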
Arbovirus inh = arbovirus infection inhibition | arbovirus infection cell-based antiviral screen | inhibition, % at 10 µM | hit rate 0.37% among 200,000 | AID 1251;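 active = inhibition from about 30%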;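 note: bluetongue infection of BSR cells; cell survival read as ATP light after 72 h; 0% = infected wells without compound and 100% = uninfected wells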
Arbovirus inh repeat = also measured in Arbovirus inh; calls as there; inhibition, %; measured here: 10K subset replicate screen; many hits read low in the repeat;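 first of two repeat runs on a subset; 0% = infected and 100% = uninfected wells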
* marks the source's active call; other numbers are inactive results; i = inactive; ? = inconclusive; · = no result given. Some of the compounds tested; rates above refer to the full screens.

The first 5 records, ahead of the listing:
SMILES | YopH inh | Mtb growth | RecA intein inh | Mtb bLac sens | Arbovirus inh | others
COc1cc(C(=O)CSc2nncn2C)cc(OC)c1OC | -26 | · | -0.2 | -5 | 3
CC(=O)c1ccc(NC(=O)CN2C(=O)/C(=C/C=C/c3ccccc3)SC2=S)cc1 | -22 | -8% | -0.1 | 35 | 3
C/C(=N\NC(=O)c1ccccc1N)c1ccc(NC(=O)Cc2ccccc2)cc1 | · | · | 3.1 | 6 | ·
Cc1ccc(-c2cc(C(=O)Nc3cccnc3)c3ccccc3n2)s1 | · | · | -18 | 98 | ·
CCOc1ccccc1Nc1nc(N)nc(CSc2nccc(C)n2)n1 | 17 | 2% | -2.1 | -1 | 15

This part in full, from the first entry:
SMILES | YopH inh | Mtb growth | RecA intein inh | Mtb bLac sens | Arbovirus inh | others
COc1cc(C(=O)CSc2nncn2C)cc(OC)c1OC | -26 | · | -0.2 | -5 | 3
CC(=O)c1ccc(NC(=O)CN2C(=O)/C(=C/C=C/c3ccccc3)SC2=S)cc1 | -22 | -8% | -0.1 | 35 | 3
C/C(=N\NC(=O)c1ccccc1N)c1ccc(NC(=O)Cc2ccccc2)cc1 | · | · | 3.1 | 6 | ·
Cc1ccc(-c2cc(C(=O)Nc3cccnc3)c3ccccc3n2)s1 | · | · | -18 | 98 | ·
CCOc1ccccc1Nc1nc(N)nc(CSc2nccc(C)n2)n1 | 17 | 2% | -2.1 | -1 | 15
Cc1ccc(S(=O)(=O)N2CCC[C@H]2C(=O)OCC(=O)c2ccc3c(c2)NC(=O)CO3)cc1 | · | 1% | 3.9 | -10 | ·
COc1cc2c(cc1OC)[C@H](C)N(C(=S)Nc1ccc(F)cc1)CC2 | · | -3% | -3.5 | 1 | ·
CCCCOC(=O)n1c(=O)oc2ccccc21 | -49 | -2% | 1.4 | -2 | 7
COc1ccc(C)cc1S(=O)(=O)Nc1ccc2c(c1)N(C(C)=O)CCC2 | · | · | 2.7 | 1 | ·
CCOC(=O)Cc1csc(NC(=O)c2c(O)c3ccccc3n(CC(C)C)c2=O)n1 | -41 | ? | -1.2 | 100 | -16
CCS(=O)(=O)N1CCN(CC(=O)NC2CCCCC2)CC1 | · | · | -2.1 | -4 | 1
Cc1ccc2c(c1)nnn2C1CCN(S(=O)(=O)c2ccc3ccccc3c2)CC1 | -14 | 17% | -0.3 | 99 | 1
CC1CCc2c(sc(NC(=O)c3ccc(Cn4cc([N+](=O)[O-])cn4)o3)c2C#N)C1 (stereo not drawn) | -15 | 39% | 4.6 | 95 | 2
CO/N=C/C(=N\Nc1ccccc1)C(=O)c1ccccc1 | · | 21% | -0.8 | 14 | -15
Cc1nc2ccc(S(=O)(=O)NC(C(=O)N3CCC(C)CC3)C(C)C)cc2s1 (stereo not drawn) | -63 | -14% | · | 3 | 3 | Arbovirus inh repeat=2
O=C(c1ccccc1)C1CCN(C(=O)c2cccs2)CC1 | · | 1% | 0.7 | 5 | ·
CCOC(=O)Cn1c(=O)oc2cc(S(=O)(=O)NCC3CCCO3)ccc21 (stereo not drawn) | -18 | 4% | 0.5 | -2 | 3 | Arbovirus inh repeat=-9
COc1cccc(CNC(=O)C2CCN(S(=O)(=O)c3ccc4c(c3)CC(C)N4C(=O)C3CC3)CC2)c1 (stereo not drawn) | · | · | -0.5 | 0 | ·
O=C(c1ccc(S(=O)(=O)Nc2ccccc2F)cc1)N1CCCCCC1 | · | · | -1.2 | -4 | ·
O=C(COc1ccccc1)Nc1nnc(S(=O)(=O)N2CCCCC2)s1 | · | · | 1.7 | 0 | ·
N#Cc1ccc(CSc2nnc(-c3ccccc3)n2Cc2ccco2)cc1 | 16 | 0% | 1.4 | 1 | 2
COc1ccc(NC(=O)C2=C(C)NC(=O)NC2c2ccccc2[N+](=O)[O-])cc1 (stereo not drawn) | · | -1% | 0.9 | -1 | ·
Cc1cc(NS(=O)(=O)c2ccc(NC(=S)NC(=O)c3ccc(Cl)cc3Cl)cc2)no1 | -26 | 2% | 0.4 | 32 | -6
Cc1cc(C)c(S(=O)(=O)Nc2c(C)[nH]c(=O)[nH]c2=O)c(C)c1 | -25 | -7% | -2.5 | 5 | 6
CCOc1cc(CN2CCCCC2)ccc1OC | -21 | -4% | -0.7 | -4 | -3
CC(C)CC(=O)NC1(C(F)(F)F)C(=O)N(CC(C)C)C2=C1C(=O)CC(C)(C)C2 (stereo not drawn) | 15 | -4% | 0.3 | 2 | 3
Cc1ccc2c(c1)nnn2C1CCN(CC(=O)c2ccc(Cl)cc2)CC1 | -1 | -2% | 3.2 | 1 | 7
CC(=O)Nc1ccc(NC(=O)C2C3C=CC(C3)C2C(=O)O)cc1 (stereo not drawn) | · | · | 2.7 | -3 | ·
O=C(NCCN1CCN(c2ccccc2)CC1)c1ccccc1F | · | · | -0.9 | -8 | ·
CN1CCN(C2CCCCC2NS(=O)(=O)c2ccc(Cl)cc2)CC1 (stereo not drawn) | · | · | 0.4 | 8 | ·
COc1ccccc1NC(=O)Cn1cnc2c(oc3ccccc32)c1=O | -5 | 3% | 0.9 | -1 | 13 | Arbovirus inh repeat=2
O=C(Nc1nccs1)C1CCCN1S(=O)(=O)c1cccc2cccnc12 (stereo not drawn) | -36 | -11% | · | -7 | -2
COc1ccc(Cc2nc3ccc(C(=O)N(C)CCCN4CCOCC4)cc3o2)cc1 | · | · | 0.6 | -3 | ·
COc1ccc(OCc2cc(C(=O)N3CCN(CC(=O)N(C)C)CC3)no2)c(Cl)c1 | · | · | -3.8 | 3 | ·
Cc1ccc(-c2n[nH]c3c2C(c2cccc(O)c2)N(c2ccc(C(=O)O)cc2)C3=O)cc1 (stereo not drawn) | · | -7% | 5.9 | -5 | ·
c1ccc(Oc2nc(Oc3ccccc3)nc(N3CCOCC3)n2)cc1 | 33 | 7% | 4.4 | 1 | -5 | Arbovirus inh repeat=-1
COc1ccc2[nH]c(C)c(CCN(Cc3cccs3)C(=S)Nc3ccc(F)cc3)c2c1 | -42 | 6% | 18 | 4 | 11
CCCCn1c(O)c(/C=C/C=Nc2ccccc2)c(=O)[nH]c1=O | -14 | 2% | -3.0 | 6 | 1
O=C(O)Cn1cnc2ccccc2c1=O | -9 | -5% | 1.1 | 1 | -1
Cc1ccc(OCC(=O)NCCN2CCN(C(=O)COc3ccc(C)cc3)CC2)cc1 | 2 | 5% | 2.2 | -8 | 2
Cc1ccc(NC(=O)CSCC(=O)NC2CCCCC2)cc1 | -19 | 11% | 3.6 | -9 | -5
CCN(CC)CC(=O)NN(Cc1ccccc1)c1ccccc1 | · | · | 0.9 | -3 | ·
CCn1nc(C)c(NC(=O)/C=C/c2ccc(OC)c(COc3ccc(Cl)cc3Br)c2)c1C | 10 | · | 11 | 6 | -5
Cc1cc(SCc2ccccc2Cl)nc(=O)[nH]1 | · | · | -4.5 | 3 | ·
C=CCNC(=O)c1onc(CSc2ccccc2C)c1C(=O)O | -91 | -11% | -1.8 | 1 | 10
Cc1ccc(C(=O)Nc2nc(C)c(C(=O)N(C)C)s2)o1 | · | · | -1.9 | -3 | ·
Cc1ccc(N2C(=O)CN(Cc3cccs3)C2=S)cc1C | · | 0% | -2.2 | -3 | 5
CC1CCCCN1C(=O)Nc1cccc(C(F)(F)F)c1 (stereo not drawn) | · | -1% | · | -6 | 3
O=S1(=O)C[C@@H]2N=C(N/N=C/c3ccccc3)S[C@@H]2C1 | · | 7% | 0.3 | 0 | ·
CCCCNC(=S)NNC(=O)c1nn(C)c(C)c1Cl | 48 | -5% | -4.8 | -7 | 5
CCCCC(CCC(=O)Nc1ccc(C(=O)OC)cc1)C(=O)O (stereo not drawn) | -12 | -2% | 2.2 | 8 | -4
Cc1cccc(N2C(N)=NC(N)=NC23CCCCC3)c1 | -7 | · | 0.2 | -15 | 3
O=C(O)c1ccc(N2C(=O)C3ON(c4ccccc4)C(c4ccccc4F)C3C2=O)cc1 (stereo not drawn) | -41 | -10% | 2.7 | 6 | 3
S=c1[nH]nc(C2CCCCC2)n1/N=C/c1cccs1 | -21 | · | 1.4 | 4 | 10
O=C(Cn1nnc(-c2ccncc2)n1)NCCc1ccccc1 | -48 | 2% | 2.9 | -3 | 13
C=CCNc1ncnc2ccccc12 | -53 | -6% | 2.5 | 2 | ·
CC(C)c1ccc(C2/C(=C(/O)c3ccc(F)cc3)C(=O)C(=O)N2CCCN2CCOCC2)cc1 (stereo not drawn) | · | · | 4.1 | -1 | ·
COc1cccc(CC(=O)OC(C)C(=O)Nc2ncc(Cl)cc2Cl)c1 (stereo not drawn) | · | · | -2.1 | -15 | ·
COc1ccccc1NC(=S)N(Cc1cccs1)C1CCCC1 | · | 2% | 1.3 | 1 | 2
CC(C)(C)c1ccc(C(=O)N2CCN(c3ccc(N4CCOCC4)nn3)CC2)cc1 | · | · | -6.9 | -12 | ·
(listing goes on)
SMILES | YopH inh | Mtb growth | RecA intein inh | Mtb bLac sens | Arbovirus inh | others
CCOC(=O)c1c(C)[nH]c(C)c1C(=O)COC(=O)/C=C/c1ccc(Cl)cc1 | -22 | 7% | 1.1 | 12 | 2
Cc1ccc(-c2cc3nc(-c4ccccc4)cc(N4CCOCC4)n3n2)cc1 | -10 | -1% | -12 | · | -2
COC(=O)c1ccc2c(c1)C(=O)N(C1CCCCC1)C2=O | 7 | 51% | -1.5 | 67 | 5
CCC(=O)OC1CC(C)N(C(=O)c2ccccc2)c2ccc(C)cc21 (stereo not drawn) | 12 | 2% | 4.2 | 7 | -2
COC(=O)Cn1cc(C(=O)C2CC2)c2ccccc21 | -31 | -2% | · | -4 | 1
CCSc1nc2sc3c(c2c(=O)n1-c1ccc(OC)cc1)CCN(C)C3 | · | 15% | 1.3 | 14 | ·
CCOc1ccc(NC(=O)C2CCC(CNc3c(N4CCOCC4)c(=O)c3=O)CC2)cc1 (stereo not drawn) | -47 | -5% | 1.8 | -5 | 11
COC(=O)CSc1nnc2cc(C)c3ccccc3n12 | · | -8% | 0.3 | -2 | ·
CCOCCCNC(=O)C(Cc1ccccc1)NC(=O)c1ccco1 (stereo not drawn) | -44 | -1% | -0.5 | -4 | 2
CCc1ccccc1Nc1nc(-c2cccnc2)cs1 | · | · | 1.9 | 9 | ·
COCc1ccc(CN2CCCC(CO)(Cc3ccccc3)C2)o1 (stereo not drawn) | · | -7% | -2.5 | -2 | -11
CC1=C(C(=O)N2CCCCC2)C(c2cccs2)NC(=O)N1 (stereo not drawn) | -20 | -9% | 1.7 | -4 | -1
COc1ccc(N2CCN(C(=O)c3ccc(N4C(=O)NC5CC4(C)Oc4ccccc45)cc3)CC2)cc1 (stereo not drawn) | -36 | -1% | -1.8 | -5 | 4
Cc1cc2ccccn2c1C(=O)c1ccc([N+](=O)[O-])cc1[N+](=O)[O-] | · | · | -2.8 | 0 | ·
CCCNC(=O)c1cccc(Br)c1 | · | 3% | -2.0 | 0 | -1
Cc1cc(C)cc(OCC(O)CN2CC(C)OC(C)C2)c1 (stereo not drawn) | · | · | 1.4 | -1 | ·
O=c1nc2ccccc2c2n1CC(CN1CCN(c3ccc(F)cc3)CC1)N2 (stereo not drawn) | -25 | -3% | -1.0 | -18 | 2
COc1cc(NC(=O)CSc2nnc3c(n2)[nH]c2ccc(S(=O)(=O)NC(C)C)cc23)cc(OC)c1OC | · | -5% | -1.1 | -10 | -4
CCCCCCCCCc1nc2sc3c(c2c(=O)n1NC(=O)c1ccc([N+](=O)[O-])cc1)CC(C)(C)OC3 | -12 | 1% | 2.8 | 6 | -31
CC(Oc1ccccc1)c1ccnc2nc(N3CCOCC3)nn12 (stereo not drawn) | · | 10% | 1.6 | -4 | -6
COc1ccc(-c2n[nH]c(C)c2-c2ccc(Cl)cc2)c(O)c1 | -19 | 64% | 18 | 99 | -41
Cn1c2ccccc2c2cc(/C=N/NC(=O)c3cc(O)cc(O)c3)ccc21 | · | · | -0.7 | 9 | ·
O=C1N(Cc2cccnc2)C[C@@H]2C[C@@H](c3cccc(Oc4ccccc4)c3)N3CCC[C@@]123 | · | -3% | 3.4 | -8 | ·
CN(C)CCCn1c(N)c(C#N)c2nc3ccccc3nc21 | · | 1% | i | 6 | ·
CN1CCN(c2nc(-c3ccccc3)nc(-c3ccc(F)cc3)c2C#N)CC1 | · | 24µM* | 27 | 6 | -5
CCOc1ccc(-c2c(C(=O)N/N=C/c3ccc(C)o3)nnn2-c2nonc2N)cc1 | · | · | -1.1 | 0 | ·
Cc1ccc(N=Nc2c(O)[nH]c3ccc(F)cc23)cc1 | · | 9% | -0.3 | -6 | ·
C=C(C)C1CC=C(C)/C(=N/NC(=O)COc2ccccc2Cl)C1 (stereo not drawn) | -25 | 7% | 21 | 2 | -23
O=C(Nc1ccccc1Cl)c1ccc2ccccc2c1 | · | · | -1.2 | 8 | ·

Compound activity: PubChem, several laboratories
